eIF4H inh: human eIF4H binding inhibitors, primary screen, translation initiation inhibitor project, biochemical, uHTS, fluorescence polarization. Eukaryotic translation initiation factor 4H (Homo sapiens), Q15056. eIF4H fluorescence polarization binding assay. inhibition, % at 35 µM. 0.94% of 290,000 active;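 active = 50% or more with normal probe brightness, or confirmed in later tests; inconclusive = above 50% with abnormal brightness, or retests that disagree; inactive = below 50% or failed in later tests; about a fifth of its hits are not listed in these tables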;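 note: calls also rest on retests at 20 µM and on dose response follow-up; 0% = protein and probe with vehicle and 100% = probe without protein; strong numbers were not always called active; many hits fall short of the cut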
UUG fidelity: modulators of yeast start codon fidelity, primary screen, whole organism, S. cerevisiae, single point, plate reader; AID 602363, 2012; 0.13% of 350,000 active; activity score, % at 18.7 µM; S. cerevisiae UUG-firefly luciferase reporter, luminescence/redox ratio;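 active = replicate mean at a twofold rise or more, about +100% in these data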;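 note: firefly luciferase made from a UUG start codon reports start codon fidelity; reporter light over untreated wells divided by growth signal over untreated wells; some hits fall short of that in this replicate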
Env fusion inh: inhibitors of HIV-1 Env-driven cell-cell fusion, primary screen, HeLa-JRFL effector, CEM21 target cells, luciferase; inhibition, % at 12.3 µM; 1.1% of 360,000 active; AID 651610, 2012;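 active = mean replicate inhibition score of at least 50 and every replicate individually at or above 50; inconclusive = only one of the two criteria met; inactive = mean below 50 and not all replicates reaching 50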;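 note: 0% = plate neutral controls and 100% = maraviroc near 300 nM; one replicate is shown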
MT1-MMP act inh: blockers of MT1-MMP proenzyme processing, primary screen, HT1080 RFP-PRO-GFP cells, GFP/RFP fluorescence. GFP/RFP ratio change, % at 20 µM. 0.061% of 360,000 active. Matrix metalloproteinase-14 (Homo sapiens), P50281. AID 651647, 2012. GFP/RFP ratio fluorescence, overnight; percent of plate control window, DMSO zero;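 active = GFP/RFP ratio change of at least 30% with cell ATP level not reduced by more than half and red fluorescence within 50% of control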; note: strong numbers were not always called active
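Compound: 20 µM single dose, 1% DMSO / System: HT1080 RFP-PRO-GFP cells / Controls: DMSO and RFP-L50D-GFP cell wells / Read-out basis: GFP/RFP fluorescence ratio / Schedule: overnight compound exposure at 37 °C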
PABP FP inh: PABP poly(A) RNA binding inhibitors, primary screen, biochemical, fluorescence polarization, uHTS | Polyadenylate-binding protein 1 (Homo sapiens), P11940 | inhibition, % at 35 µM | 1% of 290,000 active | AID 2014, 2009;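 active = 50% or more with normal probe brightness, or confirmed in later tests; inconclusive = above 50% with abnormal brightness, or retests that disagree; inactive = below 50% or failed in later tests; about a fifth of its hits are not listed in these tables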;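 note: calls also rest on retests at 20 µM and on dose response follow-up; controls were probe without protein and protein plus probe with vehicle; some compounds called inactive have numbers as strong as hits; many hits fall short of the cut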
Target sequence (P11940 whole entry, looked up): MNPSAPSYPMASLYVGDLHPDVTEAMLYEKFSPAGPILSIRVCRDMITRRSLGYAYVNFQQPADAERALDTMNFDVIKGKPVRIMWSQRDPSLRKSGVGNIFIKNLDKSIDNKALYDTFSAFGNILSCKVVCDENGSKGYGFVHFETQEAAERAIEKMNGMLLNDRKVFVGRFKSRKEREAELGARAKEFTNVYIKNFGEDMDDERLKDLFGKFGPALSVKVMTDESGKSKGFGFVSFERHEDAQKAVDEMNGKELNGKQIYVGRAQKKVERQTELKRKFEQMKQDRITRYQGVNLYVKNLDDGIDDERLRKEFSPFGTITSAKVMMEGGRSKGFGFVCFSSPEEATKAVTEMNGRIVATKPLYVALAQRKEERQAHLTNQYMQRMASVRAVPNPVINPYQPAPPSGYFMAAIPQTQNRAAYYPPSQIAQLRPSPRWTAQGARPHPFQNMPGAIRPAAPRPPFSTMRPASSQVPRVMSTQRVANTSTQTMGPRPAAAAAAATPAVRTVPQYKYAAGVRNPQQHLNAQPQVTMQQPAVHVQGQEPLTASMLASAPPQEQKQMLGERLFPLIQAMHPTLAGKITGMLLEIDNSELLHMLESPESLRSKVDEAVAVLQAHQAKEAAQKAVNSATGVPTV
Rce1 inh: yeast Rce1p protease inhibitors, primary screen, biochemical, fluorescence, cell-free homogeneous | CAAX prenyl protease 2 (Saccharomyces cerevisiae (strain ATCC 204508 / S288c)), Q03530 | yeast membranes, quenched prenylated peptide cleavage fluorescence | calls only | 0.27% of 290,000 active;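 active = fall in fluorescence gain of 50% or more versus controls, with final raw signal at or below 3038400; inconclusive = same 50% fall but final raw signal above 3038400; inactive = fall in fluorescence gain under 50%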;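 note: plate controls were neutral control wells for no effect and wells lacking membranes for full effect; tested at 10 µM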
CSC inhib: cancer stem cell viability inhibitors, primary screen, luminescence | cancer stem cell-like cells viability | inhibition, % at 7.5 µM | 1.1% of 300,000 active;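 active = mean at 75% or more and at least half the replicates too; inconclusive = mean and replicates disagree; tested in HMLE shEcad cells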;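 note: 0% = median of negative and 100% = median of positive control wells; the first replicate is given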
MT1-MMP act inh RFP: also measured in MT1-MMP act inh; calls as there; RFP signal change, %; measured here: RFP expression control read;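 0 = vehicle wells; hits needed this value within 50% of zero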
Starred values were filed as active, the others as inactive; i = inactive; ? = inconclusive; . = not tested or not shown; & = joins results of further samples; [ ] = remark or other dose.

mol | eIF4H inh | UUG fidelity | Env fusion inh | MT1-MMP act inh | MT1-MMP act inh RFP | PABP FP inh | Rce1 inh | CSC inhib
O=C(CCCSc1nc2ccccc2[nH]1)Nc1ccccc1 | 44 | -16 | -18 | 13 | -1 | -3 | i | -6
COc1ccc(Nc2c3c(nc4ccc(C)cc24)CCC3)cc1 | -8 | -1 | 33 | -1 | -14 | -8 | i | 5
COc1cc(NC(=O)CCN2C(=O)NC3(CCCC3)C2=O)c(OC)cc1Cl | . | -12 | 5 | 0 | 0 | . | . | -6
c1ccc(-c2nn3c(-c4ccccc4)nnc3s2)cc1 | 2 | -24 | -169 | 1 | 1 | 0 | i | -15
COc1ccc(C2CC(C)(c3ccc(OC)cc3)Nc3ccccc3N2)cc1 (stereo not given) | -8 | -4 | -147 | 0 | -3 | 5 | i | 24
CN(C)/C=C(/C(=O)c1ccccc1Cl)S(C)(=O)=O | -9 | . | 0 | -1 | 1 | -1 | . | .
CC(C)c1ccc(SCc2noc(C(=O)NCC3CCCO3)c2C(=O)O)cc1 (stereo not given) | -4 | -13 | -11 | -1 | -3 | 5 | i | 3
OCCOCCn1c(C2CCCN2c2nc(-c3ccc(F)cc3)cs2)nc2cc(C(F)(F)F)ccc21 (stereo not given) | . | -32 | 31 | -5 | -7 | . | i | -1
Cc1ccc(S(=O)(=O)N2CCC(C(=O)NNC(=O)c3ccccc3O)CC2)cc1 | . | -12 | 37 | 4 | -2 | . | i | 50
COC(=O)COc1ccc(S(=O)(=O)NCc2ccncc2)cc1 | 6 | -12 | . | -4 | -19 | 11 | i | 6
CSc1ccc(C2=CC(=O)C[C@H](c3ccc(Cl)cc3)C2)cc1 | . | -17 | -24 | 0 | -2 | . | . | ?
O=C(Nc1ccccc1)N1CCCC2CCCCC21 (stereo not given) | 5 | -14 | . | 2 | 2 | 0 | i | 14
CCOC(=O)C1CCCN(C(=S)Nc2ccc(Nc3ccccc3)cc2)C1 (stereo not given) | -7 | -23 | -2 | 5 | -3 | -6 | i | -3
Cn1c(CCCNC(=O)c2ccccc2)nc2ccccc21 | -3 | -18 | -32 | 1 | 3 | 0 | i | 2
CC(C(=O)OCC(=O)c1c(N)n(C)c(=O)n(C)c1=O)N1C(=O)c2ccccc2C1=O (stereo not given) | -3 | -19 | -13 | 3 | 1 | -4 | i | -6
O=c1oc2ccccc2c(Nc2ccc(Cl)cc2)c1[N+](=O)[O-] | 1 | . | 18 | 2 | -11 | 11 | i | 36
CC(C)(C)[C@@H]1C=C(C(=O)N2CCOCC2)O[C@H](OCc2ccc(CO)cc2)C1 | 5 | -7&3 | 1[16.7 µM] | 1 | 5 | 4 | i | -14
O=C(NC1CCCC1)c1nc2c(nnn2Cc2ccccc2Cl)c(=O)[nH]1 | 2 | -12 | . | 7 | 1 | 0 | i | -10
Nc1nn(S(=O)(=O)c2cccc3nsnc23)cc1-c1ccc(Br)cc1 | 1 | -13 | . | 8 | -15 | 2 | i | -4
CCCCN(Cc1ccco1)S(=O)(=O)c1ccc(-c2ccc(=O)[nH]n2)s1 | 7 | -8 | -6 | . | . | -8 | i | 2
COCC(C)n1c(SCc2cc(=O)n3cc(C)ccc3n2)nc2ccccc2c1=O (stereo not given) | 2 | 0 | 24 | 2 | 0 | -9 | i | 11
Cc1ccc(S(=O)(=O)N2CCN(C(=O)CC(C)n3cncn3)CC2)cc1C (stereo not given) | -6 | -19 | 1 | -3 | 1 | 2 | i | 3
Cn1c(=O)oc2cc(S(=O)(=O)N3CCN(C(=O)c4ccco4)CC3)ccc21 | . | -8 | 1 | -5 | 4 | . | . | -12
CCOC(=O)C1=C(C)N=c2sc(=Cc3cc(Cl)c(OCC(=O)O)c(Cl)c3)c(=O)n2C1c1cccc(OC)c1 (stereo not given) | . | -13 | -12 | -92 | -7 | . | . | .
COCc1cc(C)nc2sc(C(=O)N3CCN(c4ccccc4)CC3)c(N)c12 | -5 | -2 | -5 | 2 | 3 | 18 | i | 19
CCc1nnc(NC(=O)CSc2nnc(CNC(=O)c3ccccc3)o2)s1 | . | -19 | 10 | 3 | 1 | . | . | .
CCOC(=O)c1nn(-c2cccc(Cl)c2)c2nc(CC(C)C)c(C#N)c(=O)n12 | 0 | 19 | -64 | -1 | -1 | -13 | i | -5
N#Cc1ccc(Oc2cnccn2)cc1 | -7 | -37 | 0 | 5 | 5 | -2 | i | -2
O=C1C(NS(=O)(=O)c2cccs2)=C(N2CCN(c3ccccc3)CC2)C(=O)c2ccccc21 | -8 | -6 | . | 8 | -2 | 47 | i | 31
Cc1occc(=O)c1OCc1ccccc1 | -5 | . | 10 | -2 | 3 | -5 | i | -15
CCN(CC(=O)Nc1c(F)cccc1F)C(=O)c1ccc2c(=O)n3c(nc2c1)CCC3 | . | 3 | -58 | -3 | 4 | . | . | .
c1cn2cc(-c3ccc(CN4CCOCC4)cc3)ccc2n1 | . | -39 | -3 | 3 | 4 | . | . | .
COc1cccc(-c2csc(N3CCN(S(=O)(=O)c4ccc(F)cc4)CC3)n2)c1 | 8 | -5 | -12 | -5 | -4 | -4 | i | 4
CCSC(=S)Nc1c(C)n(C)n(-c2ccccc2)c1=O | -1 | -14 | -14 | -13 | -5 | -5 | i | -5
CCOc1cc(/C=N\O)cc(Cl)c1OCC | 9 | -21 | -274 | -2 | 3 | 3 | i | 23
NC(=O)c1cc(S(=O)(=O)Nc2cccc(Cl)c2)cs1 | -18 | -17 | 7 | 3 | -7 | 2 | i | 14
Cc1nc(C)c(C(=O)OCC(=O)Nc2cccc(C)c2C)s1 | . | -1 | . | -1 | -2 | . | . | -7
CCCc1cc(=O)[nH]c2nnc(SCC(=O)Nc3cc(C)on3)n12 | . | -3 | 3 | 2 | 2 | . | i | 9
CCOC(=O)NC(=O)/C(C#N)=N\Nc1cccc(Cl)c1 | 3 | -7 | 1 | 6 | -18 | -10 | i | 37
CCOC(=O)CN1C(=O)COc2ccc(Cl)cc21 | -2 | -15 | 11 | -1 | 0 | 2 | i | -1
O=C1CSC(c2c(F)cccc2Cl)N1c1cccc(F)c1 (stereo not given) | -1 | . | 6 | -3 | 1 | 4 | i | 1
Cc1ccc(COC(=O)c2ccc3c(c2)C(=O)N(CCCN2CCOCC2)C3=O)cc1 | -2 | . | 3 | 1 | 3 | -6 | i | 13
COc1cc2[nH]c(=S)nc(NCCCOC(C)C)c2cc1OC | 1 | -18 | -45 | 4 | 0 | 19 | i | 0
COc1ccc(/C=C/C(=O)Oc2ccc(C=O)cc2OC)cc1 | . | . | 19 | 2 | 2 | . | i | -14
CC(C)Sc1nc2sc(-c3ccccc3)cc2c(=O)n1N | -4 | -2 | . | -1 | 1 | -1 | . | 0
CCn1c(SC(C)C(=O)Nc2nnc(C)s2)nnc1-c1ccco1 (stereo not given) | 4 | -14 | 15 | 1 | -1 | 2 | . | -20
COc1cc2c(cc1NC(=O)c1ccncc1)oc1ccccc12 | -6 | . | . | 4 | 0 | 2 | i | -13
CN(Cc1ccc(Cl)cc1Cl)C(=O)C1CC(=O)N(Cc2ccco2)C1 (stereo not given) | . | -8 | -2 | 3 | -3 | . | . | .
CCOC(=O)C1=C(c2ccccc2)Nc2ncnn2C1c1ccccn1 (stereo not given) | 2 | -12 | -155 | 2 | 3 | 1 | i | -2
COc1cccc(NC(=S)N2CCC(c3ccc(C)cc3)C2)c1 (stereo not given) | 7 | -24 | -17 | 0 | -4 | -7 | i | -9

Carrying on.
mol | eIF4H inh | UUG fidelity | Env fusion inh | MT1-MMP act inh | MT1-MMP act inh RFP | PABP FP inh | Rce1 inh | CSC inhib
O=C(c1cc(=O)c2ccccc2o1)N1CCN(c2ccccc2F)CC1 | -5 | . | 2 | 2 | 4 | 8 | i | -4
COc1ccc(Cl)cc1NC(=O)C/C(C)=N/NC(=O)C(=O)NCc1ccccc1 | 7 | -18 | 11 | -1 | 5 | 2 | i | -8
Cc1nc(NCCc2ccccc2)c2nnn(Cc3ccccc3)c2n1 | -7 | -7 | -5 | -2 | -6 | -3 | i | -10
O=C(CC12CC3CC(CC(C3)C1)C2)N/N=C/c1ccc([N+](=O)[O-])o1 | 34 | . | 10 | -9 | -8 | -1 | i | 34
Cc1ccc(OCC(=O)N(C)CC(=O)Nc2ccc(F)c(F)c2F)cc1 | . | -7 | -4 | 5 | 0 | . | i | -11
COc1ccc(/C=N\NC(=O)c2ccccc2Cl)cc1COc1c(F)c(F)c(F)c(F)c1F | 4 | -2 | . | -3 | -3 | 6 | i | 72
O=C(c1ccc2c(=O)n(CCc3ccccc3)c(=O)[nH]c2c1)N1CCN(c2ccccc2)CC1 | -5 | -7 | . | -1 | -11 | -6 | i | 13
CC(NC(=O)CCC(=O)NC(C)c1ccccc1)c1ccccc1 (stereo not given) | -4 | 6 | 5 | 4 | 3 | -4 | i | -11
O=[N+]([O-])c1cccc(-c2nc(-c3ccccc3)c(-c3cccs3)[nH]2)c1 | -10 | -21 | . | 1 | -5 | 4 | i | .
COc1ccc(Cl)cc1NC(=O)/C=C\C(=O)O | -5 | -1 | -55 | 1 | 3 | 22 | i | -5
O=C(NCc1ccccn1)c1ccc(OC2CCN(Cc3ccccc3)CC2)cc1 | 5 | -16 | -15 | -1 | -1 | 3 | i | -4
COc1ccc(S(=O)(=O)N(CC(=O)O)c2ccccn2)cc1 | 20 | -3 | -38 | 3 | 4 | 26 | i | 1
COc1ccc(CCN(Cc2nc(-c3ccccc3)no2)Cc2nc(-c3ccccc3)no2)cc1OC | -10 | -19 | . | -2 | -6 | 7 | i | -11
Cc1c(C#N)c(N=CN(C)C)c(C(=O)c2ccccc2)n1-c1ccc(Br)cc1 | -1 | -11 | 10 | 0 | -10 | -10 | i | 5
Cc1cc(C)cc(C(=O)NN2CCN(C)CC2)c1 | 3 | -8 | 0 | 1 | 3 | -1 | i | .
O=C1/C(=C/c2ccncc2)N=C2CCCCCN12 | -9 | . | 1 | -1 | -1 | 2 | i | 16
O=C(NCCc1ccc(Cl)cc1)Nc1cccc(Cl)c1 | 1 | -12 | . | -3 | -6 | -4 | i | -13
Cc1ccc(C)c(NC(=S)NNC(=O)c2csc(C)c2)c1 | -8 | . | -55 | -2 | -2 | -14 | i | 3
O=C(c1ccc(C#CC2(O)CCCCC2)cc1)N1CCOCC1 | -13 | -1 | -66 | 3 | 6 | -1 | i | 0
O=C(CSCc1ccc(Cl)cc1)Nc1nccs1 | -11 | -17 | . | 2 | -2 | 2 | i | -3
CCn1cc(Br)c(C(=O)Nc2ccc(C(=O)OC(C)C)cc2)n1 | -8 | 18 | . | -3 | -1 | 2 | i | 1
Cc1cc(Cl)ccc1OCC(=O)NC1CCCC1 | -1 | -15 | . | -1 | -17 | 2 | i | 2
COc1ccc(C(=O)N2CC=C(c3ccccc3)CC2)cc1S(=O)(=O)N1CCOCC1 | 0 | -14 | . | -6 | -6 | -2 | i | -9

Source: PubChem (several laboratories)
